Screens as filed in PubChem BioAssay.
Beta apoptosis – beta cell apoptosis inhibition; INS-1E cytokine-induced death, ATP luminescence, 48 h; percent of positive-control rescue, neutral wells zero; AID 435005; protection from apoptosis, % (test concentration not listed); 0.8% of 300,000 active;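 active = all replicates at 75% or more, or half of them and the mean; inconclusive = half reach 75% but not the mean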;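 also: 0% = cytokine-treated negative control wells and 100% = positive control rescue; higher means more ATP so stronger rescue from cytokine killing; wells of about 40 µL received 100 nL stock; the first replicate is given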
T cruzi repl – T. cruzi replication inhibition; T. cruzi beta-gal in NIH3T3, luminescence, 90 h; inhibition, % (concentration not given with the values); 1.4% of 300,000 active; AID 1885;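 active = mean inhibition across valid replicates above about 55%, limit read from the data; inconclusive = mean below that limit but half or more replicates reach it; inactive = mean below it, under half of replicates reach it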;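 also: signal also drops with host cell toxicity which is not excluded here; 0% = plate median of DMSO wells and 100% = zero luminescence signal; higher percent means less beta-gal luminescence so fewer parasites; stock transfer was 50 nL into about 50 µL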
Calb FLC – C. albicans growth modulation with fluconazole. AID 1979. C. albicans CaCi-2 (fluconazole-resistant clinical isolate) + fluconazole, Alamar Blue growth, 48 h. 0.57% of 300,000 active. growth inhibition, % (test concentration not listed);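 active = most replicates above 75%; inconclusive = exactly half above 75%; inactive = most below 75%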;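 also: all wells also contain fluconazole at 8 µg/ml as a sub-toxic cotreatment; 0% = median of DMSO wells and 100% = median of geldanamycin control wells; wells of about 8 µL received 7.5 nL stock; the first replicate is given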
AF4-AF9 inh – inhibitors of human MLL-AF4/AF9 interaction. 0.47% of 350,000 active. inhibition, % at 10 µM. AID 651704. P42568. AlphaScreen, biotin-AF4 peptide binding to FLAG-AF9;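 active = every replicate reaching a set inhibition limit, whatever the replicate mean, cut at about 25% in these data; inconclusive = mean inhibition reaches that limit but some replicates miss it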;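 also: 0% = plate neutral control median and 100% = total signal loss; the record names both 10 and 1 µM as test concentration; the first replicate is given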
Target sequence (P42568 whole entry, looked up): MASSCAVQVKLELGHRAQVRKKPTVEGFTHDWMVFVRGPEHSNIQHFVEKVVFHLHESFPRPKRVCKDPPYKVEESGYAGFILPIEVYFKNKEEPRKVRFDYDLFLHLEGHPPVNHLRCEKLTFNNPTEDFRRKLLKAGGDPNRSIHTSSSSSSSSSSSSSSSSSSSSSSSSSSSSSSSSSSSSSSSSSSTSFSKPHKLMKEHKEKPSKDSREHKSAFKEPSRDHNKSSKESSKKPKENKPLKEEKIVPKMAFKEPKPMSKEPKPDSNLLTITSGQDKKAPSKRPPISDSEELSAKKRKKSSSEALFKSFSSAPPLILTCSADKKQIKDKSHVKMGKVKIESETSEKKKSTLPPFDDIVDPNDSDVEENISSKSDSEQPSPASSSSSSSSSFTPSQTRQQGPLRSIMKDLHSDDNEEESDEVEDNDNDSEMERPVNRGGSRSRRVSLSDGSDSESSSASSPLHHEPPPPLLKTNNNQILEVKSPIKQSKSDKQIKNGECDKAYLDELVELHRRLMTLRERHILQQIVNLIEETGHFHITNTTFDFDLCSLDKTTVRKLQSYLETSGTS
rRNA inh HTS – selective bacterial rRNA inhibition in E. coli | E. coli WT GFP vs humanized-ribosome RFP mutants, fluorescence, 24 h; hits give low values; DMSO median 0, no signal -100 | GFP signal change (wild-type ribosome), % (no concentration beside the values) | 1.6% of 350,000 active | AID 720706;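 active = significant combined selectivity score with lowered wild-type GFP, culture density cut under 30%, mutant RFP and density less affected; inactive = any of these conditions unmet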; also: one replicate is shown; some compounds called inactive have numbers as strong as hits
RanGTP-Impb inh – disruptors of Ran-importin-beta complex formation – biochemical, FRET, CFP-Ran, YFP-importin-beta, homogeneous, primary screen | inhibition, % (no concentration beside the values) | 1.1% of 300,000 active | cell-free CFP-Ran/YFP-importin-beta FRET ratio;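 active = most replicates above 15%; inconclusive = exactly half above 15%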;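 also: 0% = DMSO wells and 100% = Ran loaded with GDP instead of GTP; wells of about 40 µL received 100 nL stock; the first replicate is given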
ALR H2O2 inh – inhibitors of human sulfhydryl oxidase ALR; purified ALR, DTT oxidation, H2O2 HRP-luminol luminescence; AID 485317; inhibition, % (no concentration beside the values); 3.8% of 290,000 active;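 active = mean and each replicate at 75% or more; inconclusive = only one of the two met; inactive = neither met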;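 also: stock transfer was 7.5 nL into about 7.5 µL; 0% = neutral wells and 100% = wells with inactivated enzyme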
Target sequence (P55789 whole entry, looked up): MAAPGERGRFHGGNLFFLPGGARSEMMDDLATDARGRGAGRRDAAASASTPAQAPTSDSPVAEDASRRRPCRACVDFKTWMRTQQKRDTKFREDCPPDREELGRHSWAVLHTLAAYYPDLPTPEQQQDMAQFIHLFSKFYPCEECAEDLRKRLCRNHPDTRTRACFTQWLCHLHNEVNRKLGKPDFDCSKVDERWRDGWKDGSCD
FGF22 binding – binders of recombinant human FGF22 by thermal shift. Q9HCT0. SYPRO orange fluorescence; percent of sucrose octasulfate shift, DMSO zero. calls only at 9.99 µM. 1.5% of 340,000 active;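 active = melting point raised past a set limit in the mean and every replicate; inconclusive = no clear call; three in four hits are not shown here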
Target sequence (Q9HCT0 whole entry, looked up): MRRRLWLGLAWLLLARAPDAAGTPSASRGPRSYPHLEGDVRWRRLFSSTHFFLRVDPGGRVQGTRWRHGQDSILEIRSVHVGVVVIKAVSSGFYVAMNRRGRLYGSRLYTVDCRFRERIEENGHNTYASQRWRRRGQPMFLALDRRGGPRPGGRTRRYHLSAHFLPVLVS
rRNA inh HTS OD600 – further read-out of rRNA inh HTS, marked with its call; OD600 change, %; measured here: OD600 growth;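 optical density of the mix in the first replicate; 0 = DMSO median and -100 = no signal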
rRNA inh HTS RFP – recorded beside rRNA inh HTS, whose call it bears; RFP signal change, %; measured here: RFP humanized mutant strains;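 first replicate; 0 = DMSO median and -100 = no signal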
* marks the source's active call; other numbers are inactive results; i = inactive; ? = inconclusive; . = no result given. Only part of the results is shown; rates above refer to the full screens.

SMILES | Beta apoptosis | T cruzi repl | Calb FLC | AF4-AF9 inh | rRNA inh HTS | rRNA inh HTS OD600 | rRNA inh HTS RFP | RanGTP-Impb inh | ALR H2O2 inh | FGF22 binding
CC(C)c1ccc(N(CC(=O)N/N=C/c2ccc(OC3CSC3)cc2)S(=O)(=O)c2ccccc2)cc1 | 5 | 6 | 11 | 4.7 | 9 | 12 | 6.2 | -1.6 | -9 | i
COc1ccc2c(c1)CCc1c(C(=O)NCCc3ccc(OC)c(OC)c3)noc1-2 | 4 | 24 | -4 | . | . | . | . | 0.8 | -10 | .
Nc1cccc(CCc2nc3ccccc3[nH]2)c1 | -3 | -10 | 4 | -1.0 | 16 | 18 | 4.6 | 3.1 | 1 | i
Cc1ccc(C)c(NC(=O)CCN2CCC(C)CC2)c1 | -5 | 11 | 3 | -2.2 | 5 | 6 | -2.8 | -1.7 | -17 | i
COC(=O)c1c(C(=O)OC)c(-c2ccc(C)cc2)n2c1CCC2 | -2 | 11 | 14 | . | . | . | . | 7.2 | -12 | .
C=C(C)CNC(=S)NNC(=O)c1cc(C)oc1C | -2 | -9 | 5 | . | . | . | . | 3.0 | 53 | .
Cc1ccc(NC(=O)CN(C)C(=O)CSc2nccn2C)cc1 | -6 | . | . | 1.4 | 2 | 9 | 2.4 | . | 3 | i
O=C(COC(=O)Cc1ccsc1)Nc1ccccc1Cl | -4 | . | . | -1.4 | 4 | 8 | -3.0 | . | -7 | i
COc1ccc(Cn2nnnc2C(c2cccs2)N2CCOCC2)cc1 (stereo not given) | -3 | -13 | 5 | . | . | . | . | -2.4 | -6 | .
O=C(NCC1CCCO1)C1CCC(=O)N1Cc1ccc(F)cc1 (stereo not given) | -3 | -4 | 4 | . | . | . | . | 3.3 | -10 | .
C=CC[N+](C)(C)C/C(Cl)=C(\Cl)c1ccccc1 | 0 | -6 | -2 | . | . | . | . | -3.9 | -14 | .
CCCOc1ccc(C(=O)Nc2nc(C)c(Cc3ccc4c(c3)OCO4)s2)cc1 | 33 | 33 | 9 | -0.8 | 8 | 19 | -1.3 | -1.1 | 7 | i
O=C(Cc1c(F)cccc1Cl)OCC(=O)N1CCc2ccccc21 | -7 | . | . | 4.9 | -15 | -5 | 7.2 | . | -11 | i
COc1ccc(NC(=O)c2ccc3c(SCC(=O)O)c4c(nc3c2)CCCC4)c(OC)c1 | -7 | -4 | -10 | 5.6 | 3 | -7 | -1.6 | 1.9 | . | i
CC(=O)c1ccc(NC(=O)C2C3CCC(C3)C2C(=O)O)cc1 (stereo not given) | -7 | -9 | -12 | 2.2 | 6 | 7 | -2.1 | 2.8 | 1 | i
Cc1ccc(Nc2c(-c3ccccc3O)nc3cnccn23)cc1 | 5 | 18 | -49 | 13 | -56 | -81 | -19 | 4.5 | 99* | i
Cc1ccc(S(=O)(=O)N2CCC(Oc3cccc(C(F)(F)F)c3)CC2)cc1 | 2 | 46 | 0 | -0.5 | 3 | 1 | 1.8 | 0.5 | -14 | i
COc1cccc(-n2c(=O)c3cc(OC)c(OC)cc3n(CC(=O)Nc3cc(C)[nH]n3)c2=O)c1 | -5 | -14 | 7 | 0.5 | -9 | -13 | -8.4 | 2.6 | -8 | i
Cc1ccc2cccc(OCC(=O)Nc3ccc(N4CCOCC4)cc3)c2n1 | 4 | 9 | -10 | 1.9 | -20 | -16 | -0.4 | 5.8 | 17 | i
COCCCNC(=O)c1ccc(Cn2c(=O)c3ccccc3n(Cc3ccc(C)cc3)c2=O)cc1 | -4 | 18 | -6 | . | . | . | . | 3.9 | -11 | .
CCCS(=O)(=O)c1c(S(=O)(=O)CCC)c2c3ccccc3ccn2c1C(N)=O | -5 | 0 | -12 | . | . | . | . | 5.0 | -5 | .
Cc1cc(OCC(=O)OCC(=O)N2CCc3ccccc3C2)ccc1Cl | -5 | . | . | -0.2 | 19 | 5 | 1.3 | . | 1 | i
COc1ccc(NC(=O)C2CCCN2c2ccc(OC)c(OC)c2)cc1OC (stereo not given) | 2 | 0 | 28 | . | . | . | . | ? | 99* | .
Fc1ccc(C[n+]2csc3ccccc32)cc1 | 11 | 47 | 11 | 2.7 | 13 | 18 | -2.0 | -3.0 | 4 | i
N#C/C(=C(/O)CN1CCOCC1)c1nc2ccccc2s1 | -3 | -6 | 6 | . | . | . | . | 2.7 | . | .
COc1ccc(OCc2nnc(SCC(=O)N3C(C)CCCC3C)o2)cc1 (stereo not given) | -7 | 7 | -5 | -1.6 | -5 | -7 | -1.8 | 0.3 | 1 | i
COc1ccccc1NC(=O)c1ccc(CN(c2cc(Cl)ccc2C)S(=O)(=O)c2ccccc2)cc1 | 0 | 0 | -19 | . | . | . | . | -2.8 | -4 | .
CCOc1cc(N2CCOCC2)c(OCC)cc1NC(=O)c1c(-c2ccccc2Cl)noc1C | -11 | 8 | 40 | ? | -7 | -2 | 0.0 | -1.9 | 0 | i
Cc1c(C(=O)CN2CCOCC2)[nH]c2ccccc12 | -5 | -10 | 1 | . | . | . | . | 5.3 | -1 | .
O=C(CSc1nc(N2CCCCC2)nc(N2CCCCC2)n1)c1ccccc1 | 9 | 25 | -2 | . | . | . | . | 4.1 | -9 | .
Cc1ccc(C(=O)N2NC(c3ccc(F)cc3)C3C(=O)N(c4ccc(C)cc4)C(=O)C32)cc1 (stereo not given) | -9 | 0 | 5 | -0.4 | -3 | -1 | -2.2 | 2.5 | -11 | i
CN(C)S(=O)(=O)c1ccc(C(=O)N2CCOCC2)cc1 | -6 | -25 | 1 | . | . | . | . | -7.0 | -13 | .
Cc1ccc(NC(=O)c2cc(S(=O)(=O)N3CCCCC3)cs2)cc1 | -5 | -7 | -18 | -57 | -21 | -16 | 10 | 0.4 | -11 | i
O=C(COC(=O)c1cnccn1)c1ccc(Cl)cc1 | -7 | . | -25 | -7.7 | 7 | 12 | -0.7 | . | . | .
CCc1ccc(-c2cc(C)no2)cc1S(=O)(=O)NCc1ccc(OC)c(OC)c1 | -7 | 6 | -5 | -4.3 | -5 | -18 | 1.3 | 3.1 | -8 | i
O=C1/C(=C\c2ccc(O)c(O)c2)SC(=S)N1Cc1ccccc1 | -1 | 4 | 18 | ? | -20 | -26 | -2.4 | 4.3 | 45 | i
COC(=O)Cc1ccc(NC(=O)C(c2ccccc2)c2ccccc2)cc1 | 1 | 14 | 11 | -43 | -8 | -3 | -2.3 | -3.8 | 5 | i
O=C1c2ccc3c4c(ccc(c24)C(=O)N1c1cccc(O)c1)CC3 | -9 | -8 | -6 | 0.0 | 8 | 12 | 0.5 | 6.0 | -2 | i
COC(=O)c1cc(S(=O)(=O)NC2CCC(C)CC2)cn1C (stereo not given) | 0 | 0 | 1 | -4.0 | 12 | 12 | 2.8 | -4.3 | -1 | i
CN(CC(=O)Nc1ccccc1)CC(=O)Nc1ccccc1Cl | -2 | -11 | -3 | 0.1 | 6 | 12 | 12 | 3.4 | 2 | i
CC(C)OC(=O)CN1C(=O)C(C)(C)Oc2ccc(C(=O)NC3CC3)cc21 | -3 | -11 | -7 | . | . | . | . | 9.7 | 1 | .
CCCN1CNC(=S)N(CCc2ccccc2)C1 | -7 | -10 | -4 | -1.8 | -1 | -2 | 1.4 | ? | -7 | i
O=C(CSc1nc(O)c(Cc2ccccc2F)c(=O)[nH]1)N1CCCCCC1 | -5 | -15 | -7 | . | . | . | . | 3.6 | 23 | .
COCC(=O)N(Cc1ccc(OC)cc1)Cc1nc2ccccc2c(=O)[nH]1 | -7 | -3 | 7 | . | . | . | . | 11 | 0 | .
Cn1c2c(c(=O)n(C)c1=O)C(CC(=O)Nc1ccc(F)cc1)C(=O)N2 (stereo not given) | -4 | -16 | -20 | -0.5 | 8 | 15 | -2.3 | 3.4 | 2 | i
COC(=O)c1ccc(-c2noc(CN3CCCCC3c3nccn3C)n2)cc1 (stereo not given) | -4 | 0 | -35 | 2.9 | -11 | -11 | -0.1 | 4.6 | -6 | i
CSc1nsc(SC)c1NC(=O)OCc1ccccc1 | -1 | 5 | -13 | . | . | . | . | 1.2 | -9 | .
O=C(COC(=O)Cc1ccccc1F)Nc1ccc2[nH]c(=O)[nH]c2c1 | . | -12 | -1 | ? | -5 | -3 | -3.8 | 0.9 | -15 | i
O=C1C(=C(c2ccccc2)c2ccccc2)Nc2ccccc21 | 7 | 18 | 0 | . | . | . | . | -1.4 | 70 | .
CCc1c(C)nc(SCC(=O)N2CC(C)OC(C)C2)[nH]c1=O (stereo not given) | . | -6 | -3 | 9.7 | 4 | 8 | -4.0 | 0.7 | 0 | i
CC(C)OCCCNC(=O)C(NS(=O)(=O)c1ccc2c(c1)c(=O)n(C)c(=O)n2C)c1ccccc1 (stereo not given) | -1 | -4 | -24 | . | . | . | . | 0.8 | . | .
O=C(NCc1ccc(Cl)cc1)c1ccc(Br)o1 | 0 | -3 | -33 | -2.6 | -18 | -34 | -7.9 | 0.2 | -2 | i
CC(C)(C)C(=O)N(CCN(C(=O)C(C)(C)C)c1ccccc1)c1ccccc1 | -1 | 29 | 26 | . | . | . | . | 10 | 14 | .
Cc1ccc2nc(-c3ccccn3)c(Nc3ccccc3C)n2c1 | 101* | 62* | 30 | 15 | -46 | -49 | -8.9 | 7.7 | 98* | .
CC1(C)C(c2cccs2)=[N+]([O-])C2(CCCCC/C2=N\NC(N)=S)N1O (stereo not given) | 0 | -35 | 4 | . | 2 | 3 | -3.1 | 2.7 | 12 | .
COc1ccc(C2C(C(=O)c3cccs3)=C(O)C(=O)N2c2nncs2)cc1 (stereo not given) | -9 | -14 | 116* | . | . | . | . | -22 | 8 | .
Nc1nnc(-c2cc3ccccc3oc2=O)s1 | -3 | -12 | 5 | . | . | . | . | -11 | . | .
COc1ccc(C(CNC(=O)COc2ccc(Br)cc2F)N2CCCC2)cc1 (stereo not given) | -2 | -7 | -11 | 0.5 | 16 | 3 | 22 | -2.5 | -6 | i
C#CCOCCOCCOCCNc1nc(N2CCN(C(=O)[C@H]([C@@H](C)CC)n3cc(CCCN=C(N)N)nn3)CC2)nc(N2CCN(C(=O)[C@H](CCCCN)n3cc(CCCC)nn3)CC2)n1 | -3 | -10 | 16 | 29* | -38 | -63 | 6.5 | 2.4 | -45 | i
CN(c1ccccc1)S(=O)(=O)c1ccc(C(=O)Nc2nnc(-c3ccco3)o2)cc1 | -2 | -8 | ? | 2.0 | -52 | -73 | -17 | -1.9 | ? | .
O=C(c1ccc(Cl)c([N+](=O)[O-])c1)N(Cc1ccc(F)cc1)C1CCS(=O)(=O)C1 (stereo not given) | 7 | -17 | 19 | 0.4 | -1 | 3 | -4.5 | 2.8 | 3 | i
O=C(NCCc1cn2ccccc2n1)c1cc(COc2ccc3ncccc3c2)on1 | 104* | -88 | -6 | -0.7 | -20 | -16 | 9.8 | 1.2 | -31 | .
